Assay outcomes as filed in PubChem.
ClpP mod: qHTS Assay for Activators of ClpP; ATP-dependent Clp protease proteolytic subunit (Bacillus subtilis (strain 168)), P80244; purified B. subtilis ClpP, FRET peptide cleavage, 20 min; Potency, µM (top dose mostly 57.5 µM), for inactives: top-dose activity change, negative = active; actives 1.9% (n = 340,000); active = well fitted falling curve with a large enough effect; inconclusive = small, poorly fitted or top-dose-only effect; inactive = no such curve, though single readings can be large or run the other way; further: potency means the concentration at half of the fitted maximal effect; the source files actives as falling curves though it sought activators and does not explain the sign; nearly all actives have a fitted effect of over 65% in size; many hits overshoot -100%
Target sequence (P80244 whole entry, looked up): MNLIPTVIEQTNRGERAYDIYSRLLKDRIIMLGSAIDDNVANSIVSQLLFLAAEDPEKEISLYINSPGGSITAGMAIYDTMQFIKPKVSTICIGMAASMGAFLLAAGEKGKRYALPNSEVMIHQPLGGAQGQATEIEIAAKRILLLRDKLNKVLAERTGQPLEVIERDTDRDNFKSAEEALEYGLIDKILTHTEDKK
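ClpP 10 microg/mL final, pH 8 Tris/KCl buffer with BSA, glycerol, Tween-20; compound pinned in; FRET-FV substrate; RT 20 min; Ex320/Em430; ΔFRET vs ADEP 5.8 microM, DMSO, no enzyme.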
gsp agonist: qHTS for Agonist of gsp, the Etiologic Mutation Responsible for Fibrous Dysplasia/McCune-Albright Syndrome: qHTS; gsp mutant cells, cAMP HTRF, 30 min; control for the full effect not named in the record; Potency, µM (doses to about 76.9 µM), inactives show at the top dose activation (cAMP increase), actives largely listed as activators; actives 0.13% (n = 340,000); active = well fitted activation curve with a large enough effect; inconclusive = small, poorly fitted or top-dose-only effect, or another doubt; inactive = no such curve, though single readings can be large or run the other way; cell line not stated here;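 further: phosphodiesterase inhibitor Ro 20-1724 added with compounds to block cAMP breakdown; potency means the concentration at half of the fitted maximal effect; nearly all actives have a fitted effect of over 60% in size; about a fifth of the inactives were tested at one dose only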
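Cells stably selected in G418 were plated at 2000/well, grown 16-24 hr, then given compounds in DMSO with the PDE inhibitor […] (300 uM solution added) for 30 min at 37C; cAMP was read by HTRF.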
Menin MLL FP FL: qHTS Assay for Inhibitors Targeting the Menin-MLL Interaction in MLL Related Leukemias: Competition With Fluorescein Labeled MLL-derived Peptide; 290,000 tested, under 10 active; Fluorescence polarization, fluorescein-MLL peptide displacement from menin; FP activity change, % at 61.4 µM; AID 1766, 2009; inconclusive = falling polarisation curve, or a change in total fluorescence; inactive = total fluorescence flat and polarisation flat or rising; no compound was filed as active; the % refers to the polarisation; negative = inhibition;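 further: % of control where 0% means no effect; inhibitors lower the polarisation; unlabelled MLL peptide was the positive control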
Sfp PPTase inh: qHTS Assay for Inhibitors of Bacillus subtilis Sfp phosphopantetheinyl transferase (PPTase); Potency, µM, inactives show max response, negative = inhibition, most hits filed as inhibitors; actives 3.5% (n = 310,000); Biochemical Sfp PPTase activity, qHTS; active means well fitted inhibition curve with a large enough effect; inconclusive means small, poorly fitted or top-dose-only effect, or another doubt; inactive means no such curve, though single readings can be large or run the other way;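 further: the enzyme is Sfp with the accession as filed and its product quenches rhodamine fluorescence; potency means the concentration at half of the fitted maximal effect; 0% = enzyme reaction without inhibitor and -100% = no enzyme wells; top concentration of the series not given in the record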
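After 15 min at room temperature with compound, 15 nM Sfp received 5 uM rhodamine-CoA plus 12.5 uM BHQ-2-ybbR (50 mM Hepes pH 7.6, 10 mM MgCl2). Rate came from the fluorescence difference over 30 min, ex 525/em 598 nm.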
gsp antagonist: qHTS for Antagonists of gsp, the Etiologic Mutation Responsible for Fibrous Dysplasia/McCune-Albright Syndrome: qHTS. gsp-mutant cells, cAMP HTRF, 30 min; control for the full effect not named in the record. Potency, µM (doses to about 76.9 µM), without a hit: at the highest dose activity change, negative = inhibition, most hits filed as inhibitors. actives 0.4% (n = 340,000); active = falling curve of any shape with a large fitted effect; inconclusive = falling curve, mostly with a smaller effect; inactive = flat or rising curve; cell line not stated here;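 further: intracellular cAMP measured with PDE inhibitor Ro 20-1724 present during compound exposure; potency means the concentration at half of the fitted maximal effect; on the % scale 0 is the no-effect control and ±100 the full control effect; nearly all actives have a fitted effect of over 65% in size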
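G418-selected cells were plated in DMEM/10% FBS for 16-24 h at 37C, then treated with compounds plus the PDE inhibitor […] (300 uM solution added) for 30 min at 37C. Intracellular cAMP was measured by HTRF after 30 min lysis at room temperature.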
TRPV1 potentiator: HTS Assay for Compounds that Act as Potentiators of the Vanilloid Receptor 1; potentiation, % at 8.33 µM; TRPV1-expressing cells, Fluo-8 calcium influx, capsaicin EC20 potentiation; host cell line not named in the record; control for the full effect not named in the record; AID 540277, 2011; actives 0.02% (n = 320,000); active means potentiation above 80%; inconclusive means 30% to 80%; inactive means below 30%; further: 0% is about no effect
Target sequence (Q8NER1 whole entry, looked up): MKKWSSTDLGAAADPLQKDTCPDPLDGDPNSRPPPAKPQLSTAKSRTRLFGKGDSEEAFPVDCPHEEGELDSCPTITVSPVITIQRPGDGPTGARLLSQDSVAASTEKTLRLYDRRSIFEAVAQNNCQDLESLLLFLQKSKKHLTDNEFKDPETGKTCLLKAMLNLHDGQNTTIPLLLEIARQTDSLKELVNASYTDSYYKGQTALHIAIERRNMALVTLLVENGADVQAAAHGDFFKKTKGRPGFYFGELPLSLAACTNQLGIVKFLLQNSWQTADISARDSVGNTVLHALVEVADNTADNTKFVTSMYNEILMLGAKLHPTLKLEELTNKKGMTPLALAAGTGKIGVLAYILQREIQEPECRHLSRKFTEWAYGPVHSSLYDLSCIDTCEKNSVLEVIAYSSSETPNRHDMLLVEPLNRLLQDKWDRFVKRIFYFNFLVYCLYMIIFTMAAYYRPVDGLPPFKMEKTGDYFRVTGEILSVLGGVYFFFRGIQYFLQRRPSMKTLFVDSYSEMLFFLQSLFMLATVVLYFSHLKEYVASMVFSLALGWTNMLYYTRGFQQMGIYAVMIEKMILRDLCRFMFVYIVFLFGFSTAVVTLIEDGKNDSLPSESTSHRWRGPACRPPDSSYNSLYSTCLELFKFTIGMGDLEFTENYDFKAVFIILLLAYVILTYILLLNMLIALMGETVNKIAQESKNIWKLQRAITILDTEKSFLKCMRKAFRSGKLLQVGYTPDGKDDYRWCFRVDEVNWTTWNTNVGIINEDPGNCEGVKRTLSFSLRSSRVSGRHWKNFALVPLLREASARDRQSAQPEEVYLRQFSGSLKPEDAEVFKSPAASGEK
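Fluo-8 calcium influx in TRPV1-expressing cells, kinetic read (ex 480/em 520 nm). Compound added and read 3 min for agonist activity, followed by capsaicin at EC20 final and 2 min further read for enhancement.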
D2 potentiator: Beta-Arrestin HTS for Positive Allosteric Modulators of the Human D2 Dopamine Receptor: Potentiators. potentiation, % (test concentration not listed). DiscoveRx D2 beta-arrestin cells, luminescence, 90 min; 100% = 57 uM dopamine signal. actives 0.23% (n = 360,000); active = potentiation of 50% or more; inconclusive = 30% to 50%; inactive = 30% or less;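 further: compound concentration not given in the record; tested on top of an EC20 dose of dopamine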
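PathHunter beta-arrestin assay in DiscoveRx D2 cells. Compounds were added with an EC20 of dopamine (50 nM final) for 90 min at 37 deg C. Luminescence was read 1 h after detection reagent, with 57 uM dopamine as the EC100 control.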
* = called active by the depositor; i = inactive; ? = inconclusive; . = not tested or not shown; [ ] = another dose, or the depositor's remark. No enrichment for hits. About 5.1% of those tested had a hit in this group.

SMILES	ClpP mod	gsp agonist	Menin MLL FP FL	Sfp PPTase inh	gsp antagonist	TRPV1 potentiator	D2 potentiator
Cc1cccc(NC(=O)C2CCN(C(=O)c3ccc(F)cc3)CC2)n1	1.3%	5%	.	.	7%	9	5
Cc1onc(-c2c(F)cccc2Cl)c1C(=O)c1ccccc1	.	11%[15.4 µM]	4.7	3%	4%	-8	4
NC(=O)C1CCN(C(=O)CCC(=O)c2cccs2)CC1	.	28%	.	.	7%	.	-4
COc1ccc(-c2sc3ccccc3c2-c2ccc(OCCN(C)C)cc2)cc1	3.4%	.	.	.	13%	.	6
Cc1ccc(S(=O)(=O)NCCN2CCOCC2)s1	-0.2%	17%	.	15%	10%	9	-8
O=C(COC(=O)Cc1ccc(S(=O)(=O)N2CCOCC2)s1)Nc1ccc2c(c1)OCO2	0.1%	-1%	-1.0	6%	-26%	21	16
CCc1ccc(NC(=O)CSc2nc(CSc3ccc(C)cc3)cc(=O)[nH]2)cc1	.	-12%[15.4 µM]	0.5	3%	-14%	15	-2
CCn1ccc(C(=O)NCc2ccc3c(c2)OCO3)n1	-1.6%	22%	.	5%	9%	8	-3
O=C(NC(=S)NCCC1=CCCCC1)c1cccnc1	.	-13%[15.4 µM]	0.6	-11%	11%	-6	-6
COc1cc2c(cc1OC)CN(C(=O)c1cc(S(=O)(=O)N3CCOCC3)c(Cl)cc1Cl)CC2	0.2%	?	.	2%	?	2	-5
Cc1ccc(CN2CCN(/N=C/c3ccc(O)c(O)c3)CC2)cc1	1.3%	-6%	-0.2	-74%	-2%	-4	-6
O=S(=O)(c1cnccc1N1CCN(/N=C/c2ccccc2)CC1)N1CCCCC1	1.2%	3%	6.2	16%	-12%	9	-7
O=C1Cc2cc(NS(=O)(=O)c3ccc(Cl)cc3)cc3c2N1CCC3	1.2%	17%	.	.	-4%	?	-22
Nc1cccc(Nc2ncnc3ccccc23)c1	-0.2%	?	3.3	?	-4%	22	?
O=C(C1=C[C@H](c2ccccc2)C[C@H](OCc2ccc(CO)cc2)O1)N1CCN(Cc2ccc3c(c2)OCO3)CC1	0.2%	.	-0.3	-4%	-19%	-1	-13
Cc1ccc2c(c1)N(CCCC(=O)NCCCN1CCCCC1)C(=O)CO2	1.6%	-160%[inhibitor]	-1.9	11%	9%	-8	-11
CCC(C)Oc1nc2ccccc2nc1NS(=O)(=O)c1ccccc1 (stereo unspecified)	-3.1%	0%	8.3	-9%	?	0	-3
Cc1ccc(/C=N/NC(=O)CN(Cc2ccccc2)S(=O)(=O)c2ccc3c(c2)OCCO3)cc1	-12%	-7%	2.6	13%	-11%	-2	6
COc1cc(OC)c2c(C)c(Cl)c(=O)oc2c1	2.8µM*	-9%	-3.6	-16%	2%	7	8
C=CCNC(=O)COc1ccc(S(=O)(=O)Nc2ccc(OCC)cc2)cc1	13µM*	-35%[inhibitor]	4.9	-5%	0%	11	-15
COC(=O)c1ccccc1NC(=O)/C=N/O	1.0%	11%	0.0	4%	-5%	-1	12
CCN1C(=O)/C(=C\c2ccncc2)SC1=Nc1ccc(C)c(C)c1	-1.0%	5%	2.2	-40%	-14%	-17	18
COc1ccc2c(c1OC)C(=O)N1N=C(c3ccc(Br)cc3)CC21 (stereo unspecified)	0.9%	-2%[15.4 µM]	3.4	4%	4%	-7	-8
CCOc1ccc(NS(=O)(=O)c2ccc(C(=O)NCC3(N4CCCCC4)CCCCC3)cc2)cc1	0.6%	22%	.	-4%	9%	-4	-3
COc1ccc([C@]23Cc4cc(OC)c(OC)cc4C(O2)c2c(c4ccccc4oc2=O)O3)cc1	.	.	?	-19%	.	i	.
CCc1ccc(-c2cc(C)no2)cc1S(=O)(=O)Nc1ccccn1	3.4%	?	.	10%	?	-14	-13
C=CCOc1nc2c(c(=O)n(C)c(=O)n2C)n1Cc1ccc(Cl)cc1Cl	0.0%	-22%	-1.0	-2%	9%	-7	-9
CC1(C)Cc2ccccc2-c2[nH]c(=S)[nH]c(=O)c21	.	?	-4.2	3%	7%	0	-12
COc1ccc(C2NC(=O)c3ccccc3N2)cc1OC (stereo unspecified)	?	-24%	-2.9	21%	5%	-2	-19
Fc1ccccc1Cc1ccc(Cl)nn1	.	-9%[15.4 µM]	0.0	10%	17%	10	0

Entries of single compounds, quoted from the list. Screens in order: ClpP mod | gsp agonist | Menin MLL FP FL | Sfp PPTase inh | gsp antagonist | TRPV1 potentiator | D2 potentiator
`Cc1ccc(S(=O)(=O)NCCN2CCOCC2)s1` as listed: -0.2% | 17% | . | 15% | 10% | 9 | -8
`COc1ccc(-c2sc3ccccc3c2-c2ccc(OCCN(C)C)cc2)cc1` as listed: 3.4% | . | . | . | 13% | . | 6

Next part:
SMILES	ClpP mod	gsp agonist	Menin MLL FP FL	Sfp PPTase inh	gsp antagonist	TRPV1 potentiator	D2 potentiator
CCOC(=O)C(N)CSC1CC(=O)N(c2ccc(OC)cc2)C1=O (stereo unspecified)	-0.2%	12%	2.9	-3%	0%	-6	-3
COc1ccc(Nc2ncc3c(n2)CC(c2ccc(C)cc2)CC3=O)cc1 (stereo unspecified)	5.3%	-4%	-1.7	1%	-2%	0	1
Cc1ccc(/C=N/Nc2ccc(C(=O)O)cc2)o1	-5.6%	3%	-5.7	11%	-10%	-6	0
CC(C(=O)OCC(=O)Nc1ccc(S(=O)(=O)N2CCCCC2)cc1)N1C(=O)c2ccccc2C1=O (stereo unspecified)	-3.3%	-11%	-7.5	0%	-14%	6	-10
Cc1ccc2cc3c(NS(=O)(=O)c4cccc5nonc45)nn(CC(C)C)c3nc2c1	1.5%	13%	.	13%	?	17	-19
COc1cc2c(cc1OC)C(C(=O)NCc1ccco1)C(c1cccs1)N(C)C2=O (stereo unspecified)	-13%	-3%	5.3	-1%	7%	3	-9
NS(=O)(=O)c1ccc(NS(=O)(=O)c2ccc(NC(=O)c3ccc(-c4ccccc4)cc3)cc2)cc1	-8.2%	-17%	3.5	-10%	-13%	-5	11
CCCC12CN(C(=O)c3ccc(OC)cc3)CC(C)(CN(C(=O)c3ccc(OC)cc3)C1)C2=O	-4.2%	17%	4.1	16%	-20%	0	-11
COc1ccc(-n2nc(C(=O)NCC(=O)NCCCN3CC(C)CC(C)C3)c3ccccc3c2=O)cc1OC (stereo unspecified)	.	-10%	0.2	19%	-20%	8	-4
COc1ccc(CNc2nccs2)cc1OC	1.3%	-1%[15.4 µM]	-0.8	16%	12%	-5	-5
O=C(COc1ccc([N+](=O)[O-])cc1)Nc1ccc(CN2CCOCC2)cc1	1.5%	?	-3.8	3%	2%	2	-6
O=C(c1cccc(S(=O)(=O)N2CCN(c3ccc(F)cc3)CC2)c1)N1CCCC(C(F)(F)F)C1 (stereo unspecified)	-0.2%	10%	.	.	-17%	-3	-15
CCCCn1c(N)c(N(CC(C)C)C(=O)CCNC(=O)c2ccc(Cl)cc2)c(=O)[nH]c1=O	-0.9%	-11%	.	.	-2%	5	-14
C=CCNC(=O)COC(=O)c1ccc(Cl)c(S(N)(=O)=O)c1	.	-13%[15.4 µM]	-4.8	17%	-7%	2	7
C/C(=N\NC(=O)c1cccc(S(=O)(=O)Nc2ccccc2Cl)c1)c1ccco1	-25%	24%	-3.2	-9%	-8%	4	-7
CCN(C[C@H]1N[C@@](C)(C(=O)OC)[C@H]2C(=O)N(C)C(=O)[C@@H]12)C(=O)COc1ccccc1	-1.5%	.	.	.	9%	.	1
CCC(C)N=C1CC(C)(C)CC(=O)/C1=C(/O)Cc1ccccc1 (stereo unspecified)	.	0%	5.4	-13%	-8%	-13	-11
Cc1ccc(/C(O)=C2\C(=O)C(=O)N(c3cc(C)on3)C2c2cccc(Br)c2)cc1 (stereo unspecified)	-1.1%	?	1.0	?	7%	8	-7
O=C1OCc2cc(NC(=O)C34CC5CC(CC(C5)C3)C4)ccc21	0.0%	-13%	1.2	0%	-17%	0	-8
O=S(=O)(NC1CCCCC1N1CCN(c2ccc(F)cc2)CC1)c1ccc(Cl)cc1 (stereo unspecified)	-7.1%	-33%	-4.8	-3%	-8%	-1	-23
Cc1ccccc1NC(C)C(=O)N/N=C/c1c[nH]c2ccccc12 (stereo unspecified)	.	6%[15.4 µM]	1.4	16%	-13%	5	-4
O=C(Nc1ccccc1N1CCOCC1)c1ccc([N+](=O)[O-])cc1	1.0%	2%	0.9	19%	-2%	5	6
c1cnc2cc(-c3ccsc3)ncc2c1	4.0%	-11%	.	.	8%	-1	-12
COc1ccc(S(=O)(=O)Nc2cc3c4c(c2)CCN4C(=O)CC3)cc1OC	5.4%	-3%[15.4 µM]	.	.	7%	1	1
COc1ccc(CNC(=O)c2ccncc2)cc1	-0.6%	-16%	-4.0	1%	-2%	-9	-12
CCN(CC)C(=O)Cn1nnc(-c2ccc(C)o2)n1	-0.2%	22%	-6.6	-29%	5%	5	-22
CCOC(=O)N1CCN(c2nc(-c3ccc(F)cc3)cs2)CC1	-0.3%	-35%[inhibitor]	1.9	-1%	32µM*	-8	3
Cc1cc(NC(=O)Nc2cc(F)ccc2C)n(C)n1	-0.3%	-3%[15.4 µM]	1.3	17%	2%	24	-6
CCn1cc(C(=O)Nc2cccc(C)c2)c(=O)c2ccc(C)nc21	.	.	0.2	23%	.	4	.
Cc1ccc(C2CC(=O)NC(SCCC(C)C)=C2C#N)cc1 (stereo unspecified)	4.4%	-15%	-1.0	45µM*	7%	-9	2
FC(F)(F)c1ccc2c3n(nc2c1)CCN=C3c1ccc(Cl)cc1	-8.4%	-13%	.	.	7%	5	-6
CC(C)CCN1CC(C(=O)NCCC2=CCCCC2)CC1=O (stereo unspecified)	0.0%	-29%	-0.6	24%	4%	-9	0
